Screening results from PubChem BioAssay.
CSC inhib: blocks cancer stem cells; cancer stem cell-like cells viability, luminescence; inhibition, % at 7.5 µM; 1.1% of 300,000 active; AID 2717;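 active means mean at 75% or more and at least half the replicates too; inconclusive means mean and replicates disagree; tested in HMLE shEcad cells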;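 further: 0% = median of negative and 100% = median of positive control wells; the first replicate is given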
eIF4H inh: inhibitors of RNA binding by human eIF4H. AID 2012. eIF4H fluorescence polarization binding assay. Q15056. inhibition, % at 35 µM. 0.94% of 290,000 active;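 active means 50% or more with normal probe brightness, or confirmed in later tests; inconclusive means above 50% with abnormal brightness, or retests that disagree; inactive means below 50% or failed in later tests; about a fifth of its hits are not listed in these tables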;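 further: calls also rest on retests at 20 µM and on dose response follow-up; 0% = protein and probe with vehicle and 100% = probe without protein; strong numbers were not always called active; many hits fall short of the cut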
Rce1 inhib: blocks yeast Ras-converting enzyme; Q03530; yeast membranes, quenched prenylated peptide cleavage fluorescence; calls only; 0.27% of 290,000 active; AID 2563;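 active means fall in fluorescence gain of 50% or more versus controls, with final raw signal at or below 3038400; inconclusive means same 50% fall but final raw signal above 3038400; inactive means fall in fluorescence gain under 50%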;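 further: plate controls were neutral control wells for no effect and wells lacking membranes for full effect; tested at 10 µM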
HIV Env fusion: blocks HIV Env-driven cell-cell fusion | HeLa-JRFL Env/CEM21 cell fusion, luciferase | 1.1% of 360,000 active | inhibition, % at 12.3 µM | AID 651610;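 active means mean replicate inhibition score of at least 50 and every replicate individually at or above 50; inconclusive means only one of the two criteria met; inactive means mean below 50 and not all replicates reaching 50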;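 further: 0% = plate neutral controls and 100% = maraviroc near 300 nM; one replicate is shown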
MT1-MMP act inh: MT1-MMP (human) activation inhibition. HT1080 RFP-PRO-GFP cells, GFP/RFP ratio fluorescence, overnight; percent of plate control window, DMSO zero. 0.061% of 360,000 active. AID 651647. GFP/RFP ratio change, % at 20 µM;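 active means GFP/RFP ratio change of at least 30% with cell ATP level not reduced by more than half and red fluorescence within 50% of control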; further: strong numbers were not always called active
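Compound: 20 µM single dose, 1% DMSO / System: HT1080 RFP-PRO-GFP cells / Controls: DMSO and RFP-L50D-GFP cell wells / Read-out basis: GFP/RFP fluorescence ratio / Schedule: overnight compound exposure at 37 °C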
PABP polyA inh: PABP-poly(A) binding inhibition; P11940; PABP-poly(A) RNA binding, fluorescence polarization; inhibition, % at 35 µM; 1% of 290,000 active;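 active means 50% or more with normal probe brightness, or confirmed in later tests; inconclusive means above 50% with abnormal brightness, or retests that disagree; inactive means below 50% or failed in later tests; about a fifth of its hits are not listed in these tables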;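 further: calls also rest on retests at 20 µM and on dose response follow-up; controls were probe without protein and protein plus probe with vehicle; some compounds called inactive have numbers as strong as hits; many hits fall short of the cut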
Target sequence (P11940 whole entry, looked up): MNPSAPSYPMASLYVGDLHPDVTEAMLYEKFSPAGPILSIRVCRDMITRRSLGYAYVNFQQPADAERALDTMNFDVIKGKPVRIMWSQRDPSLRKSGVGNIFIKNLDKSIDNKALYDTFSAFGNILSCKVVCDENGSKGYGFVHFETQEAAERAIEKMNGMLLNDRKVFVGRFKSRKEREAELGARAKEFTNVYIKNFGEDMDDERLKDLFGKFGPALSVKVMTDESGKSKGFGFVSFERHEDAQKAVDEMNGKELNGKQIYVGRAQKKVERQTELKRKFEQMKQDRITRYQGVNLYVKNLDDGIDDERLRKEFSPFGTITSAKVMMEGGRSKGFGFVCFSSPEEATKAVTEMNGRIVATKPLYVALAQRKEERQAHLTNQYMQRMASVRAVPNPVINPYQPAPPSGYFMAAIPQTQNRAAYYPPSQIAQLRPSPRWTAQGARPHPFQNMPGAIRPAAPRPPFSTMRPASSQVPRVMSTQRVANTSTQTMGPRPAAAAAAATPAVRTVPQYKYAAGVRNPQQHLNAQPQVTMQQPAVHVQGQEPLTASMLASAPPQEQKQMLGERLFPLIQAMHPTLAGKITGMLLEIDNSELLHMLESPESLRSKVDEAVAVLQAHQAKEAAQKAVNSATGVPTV
Yeast UUG start: modulators of start codon recognition fidelity in yeast; S. cerevisiae UUG-firefly luciferase reporter, luminescence/redox ratio; activity score, % at 18.7 µM; 0.13% of 350,000 active; AID 602363;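 active means replicate mean at a twofold rise or more, about +100% in these data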;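 further: firefly luciferase made from a UUG start codon reports start codon fidelity; reporter light over untreated wells divided by growth signal over untreated wells; some hits fall short of that in this replicate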
eIF4H inh retest: further read-out of eIF4H inh, marked with its call; inhibition, %; compound at 20 µM; confirmation average;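 mean of two retest wells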
PABP polyA inh retest: recorded beside PABP polyA inh, whose call it bears; inhibition, %; compound at 20 µM; confirmation repeats;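 mean of two retest wells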
MT1-MMP act inh RFP: further read-out of MT1-MMP act inh, marked with its call; RFP signal change, %; measured here: RFP expression control read;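 0 = vehicle wells; hits needed this value within 50% of zero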
Starred values were filed as active, the others as inactive; i = inactive; ? = inconclusive; . = no result given. The list is partial; the hit share may differ from the screen's.

SMILES	CSC inhib	eIF4H inh	Rce1 inhib	HIV Env fusion	MT1-MMP act inh	MT1-MMP act inh RFP	PABP polyA inh	Yeast UUG start	others
COc1ccc2cc(C3CC(c4ccco4)=NN3S(=O)(=O)c3ccccc3)c(Cl)nc2c1 (configuration not stated)	22	-2	i	21	-11	-6	-2	.
COc1cc(C#Cc2c(-c3cncn3C)n(C)c3ccc(-c4ccc5[nH]ccc5c4)cc23)cc(OC)c1	33	.	.	11	-6	1	.	-17
Cc1cnc(NC(=O)CSc2nnc(-c3ccccc3)n2Cc2ccccc2)s1	-3	-6	i	-44	2	10	8	.
Cc1ccc(S(=O)(=O)NCc2ccc(N3CCN(C(=O)OC(C)(C)C)CC3)cc2)cc1	38	-6	i	13	-7	-19	-12	-10
O=C(Nc1cnccn1)Nc1cccc(Cl)c1Cl	3	1	i	-8	-7	-7	3	.
CCOc1cc(N2CCOCC2)c(OCC)cc1NC(=O)CC12CC3CC(CC(C3)C1)C2	-11	-8	i	.	-9	-12	1	5
O=C(Nc1ncccc1O)c1ccc(C(=O)c2ccccc2)cc1	25	.	i	.	19	9	.	-21
CCOc1ccc(NC(=O)c2sc3nc(C)nc(N4CCOCC4)c3c2C)cc1	19	4	.	2	1	0	3	-10
COc1ccc(CN(CCN)C2CC(C)N(C)CC2C)cc1 (configuration not stated)	0	2	i	19	0	5	30	-19
Cc1[nH]c2ccccc2c1SCC(=O)N1CCOCC1	-9	-1	i	13	1	-2	27	-17
O=C(Nc1ccncc1)Nc1ccc(Cl)cc1Cl	4	-4	i	-4	-8	-5	1	-17
Cc1ccc(NC(=O)c2ccc(-n3cccn3)c([N+](=O)[O-])c2)cc1C	3	-6	i	-91	9	6	0	-15
NC(=O)NN=C1C2CCCC1C(c1ccccc1)NC2c1ccccc1 (configuration not stated)	8	-6	i	15	7	-2	2	-8
C1CC(CN2CCOCC2)CN(Cc2nc(CC3CC3)no2)C1 (configuration not stated)	4	1	i	-5	-2	7	1	.
N#Cc1cc2c(N)c(C(=O)Nc3ccccc3)sc2nc1N	-5	3	i	.	.	.	0	.
COc1ccc(C)cc1NC(=O)CNC(C)C(=O)Nc1cc(Cl)ccc1Cl (configuration not stated)	-1	5	i	21	0	-2	-5	.
COCCn1c(SCC(=O)NC2CC2)nnc1-c1ccc(Cl)cc1	-12	.	.	.	-2	1	.	-7
Cc1cc(C(=O)CSc2n[nH]c(N)n2)c(C)n1-c1cc(F)ccc1F	24	-4	i	-145	2	0	-5	-20
CCOC(=O)C1=C(Nc2ccc(Br)cc2)CC(C)(O)C(C(=O)OCC)C1c1ccccc1 (configuration not stated)	51	-2	i	.	-1	-2	-8	2
CCOc1nc(NCc2ccco2)nc(Nc2ccccc2F)n1	10	-2	.	.	-1	-3	58	-14	eIF4H inh retest=-6;PABP polyA inh retest=-8
CN(C)c1ccc(N=Nc2ccc(C(=O)O)cc2)cc1	-9	70*	i	32	17	3	64*	.
C[C@H](NC(=O)c1ccccc1)C(=O)OCC(=O)Nc1ccc(Cl)cn1	.	.	.	-9	1	2	.	7
O=C(O/N=C\c1ccc(N2CCOCC2)c([N+](=O)[O-])c1)c1ccc(F)cc1	-6	-6	i	.	3	6	-3	.
O=C(Nc1cccc(O)c1)c1ccc(C(=O)c2ccccc2)o1	1	9	i	-70	2	-3	12	.
CCn1c(SCc2c(Cl)cccc2Cl)nc2nc3c(cc2c1=O)CCCC3	30	.	i	6	-1	-3	.	-1

Additional compounds
SMILES	CSC inhib	eIF4H inh	Rce1 inhib	HIV Env fusion	MT1-MMP act inh	MT1-MMP act inh RFP	PABP polyA inh	Yeast UUG start	others
c1ccc2c(-c3nc4ncccc4o3)cccc2c1	2	-2	i	-97	-3	0	30	-19
CCN(C(=O)COC(=O)c1cnccn1)c1cccc2ccccc12	-9	.	.	-12	0	1	.	-4
Cc1ccccc1OCc1nnc(SCC(=O)O)n1-c1ccccc1	-5	7	i	7	3	2	-1	-5
Cc1ccc(NC(=O)Nc2cc(-c3ccccc3)nn2C)cc1Cl	31	-1	i	6	2	2	10	.
COc1ccc2nc3ccccc3nc2c1NC(=O)c1ccc(Cl)cc1	10	?	i	-4	-49	1	-9	-1
COc1ccc(NC(=O)CSc2nc3c(c(-c4cccs4)c2C#N)CN(C)CC3)cc1OC	-7	17	.	-31	-57	2	17	-4
O=C(NC1CCCCC1)C1CC(=O)N(CCc2ccc(F)cc2)C1 (configuration not stated)	0	0	i	16	-3	0	0	-9
O=C(c1ccco1)N1CCN(c2cc(N3CCOCC3)c(F)cc2[N+](=O)[O-])CC1	1	2	i	7	2	2	14	.
Cn1nc([N+](=O)[O-])nc1Oc1ccccc1N	-1	2	i	-71	7	7	-9	-13
N#Cc1c2nc3ccccc3nc2n2cc(NC(=O)c3ccc(F)cc3)ccc12	.	?	.	-48	-3	68	13	.
O=C(NCc1ccccc1)C1=C[C@H](c2ccc3c(c2)OCO3)C[C@H](OCc2ccc(CO)cc2)O1	-13	.	i	5	2	2	.	-20
c1ccc(-c2ccccc2OCCOCCN2CCNCC2)cc1	39	11	i	13	-4	1	7	.
CC(C)(C)c1nnc2cccc(Cl)n12	-12	0	i	12	-1	7	-8	.
COc1ccccc1/C=C/C=N/NC(=O)c1cccs1	-2	-9	i	-55	2	4	0	-7
CS(=O)(=O)Oc1ccccc1/C=C1/N=C(c2ccc(F)cc2)OC1=O	-10	-3	i	-8	4	6	-8	.
CCn1c(=O)cc(OCC(=O)NCc2ccco2)c2ccccc21	-12	26	.	2	4	7	5	-9
O=C(/C=C/c1ccccc1)Oc1coc(CSc2ncccn2)cc1=O	-15	2	i	4	0	3	-12	.
CNC(=O)CSc1nnc(-c2cc(C)cc(C)c2)o1	-27	-16	i	.	4	2	-1	.
COc1ccccc1C(=O)NCCCNC(=O)c1ccccn1	.	3	i	6	3	2	5	-3
CCCCC/C=C\C[C@H](O)/C=C/c1cccc(C[C@H](O)CCCCO)n1	27	43	i	.	-5	0	-8	-9
O=C(Nc1ccc(S(=O)(=O)Nc2nccs2)cc1)c1cccc(N2C(=O)c3ccccc3C2=O)c1	1	101	i	-17	1	8	3	.	eIF4H inh retest=-2;PABP polyA inh retest=14
COc1ccc(OC)c(C(c2nnnn2Cc2ccccc2)N2CCN(C3CCCCC3)CC2)c1 (configuration not stated)	-8	-3	i	.	-5	-2	11	-8
CCc1nc(NCC2CCCO2)c2oc3ccccc3c2n1 (configuration not stated)	-2	8	i	.	5	-2	-2	2
Cc1cc(C)c(C#N)c(SCC(O)CS(=O)(=O)Cc2ccccc2)n1 (configuration not stated)	8	3	i	.	10	2	14	-8
CC(=O)Nc1ccc(S(=O)(=O)N(CC(=O)O)Cc2ccccc2)cc1	3	-3	i	.	4	2	5	.

Later entries.
SMILES	CSC inhib	eIF4H inh	Rce1 inhib	HIV Env fusion	MT1-MMP act inh	MT1-MMP act inh RFP	PABP polyA inh	Yeast UUG start	others
CCOC(=O)N1CCN(CC(=O)Nc2nnc(C(F)(F)F)s2)CC1	-3	0	i	-52	0	7	-3	-11
CCc1cc(=O)oc2cc(C)cc(OCC(=O)NCCc3c[nH]c4ccccc34)c12	-1	-1	i	.	3	-6	-9	0
COc1ccc2nc(NC(=O)CCc3ccc(OC)c(OC)c3)sc2c1	-3	-9	i	0	-2	-2	4	-2
Cc1sc2ncnc(Nc3ccccc3)c2c1C	-3	-2	i	-42	5	-1	-5	-10
Cc1nn(-c2ccccc2)c(C)c1C(=O)OCC(=O)NC(=O)NC1CCCCC1	-5	-5	i	.	1	3	-3	1
CCCC(=O)Nc1nc2nc(-c3ccccc3)cc(-c3ccccc3)n2n1	2	-12	i	-47	8	16	-5	-10
Cc1cc(NC(=O)CSc2nnc(C)n2C)no1	.	-4	i	10	1	5	2	-4
Cc1ccc(NC(=O)N2CCN(C(=O)c3ccco3)CC2)cc1Cl	-1	-7	i	3	1	-1	46	-8
CSCCC(NS(=O)(=O)c1ccc2c(c1)oc(=O)n2C)C(=O)NCc1cccs1 (configuration not stated)	-6	-14	i	-3	2	5	2	-15
C[C@@H]1C=CC(=O)O[C@@H]1c1ccc(Cl)cc1	70	10	i	20	.	.	2	.
CCOC(=O)COc1ccc2c(c1)C(=O)CC(C)(C)O2	9	-6	i	.	-1	2	2	-12
O=C(N/N=C/C=C/c1ccc(Br)cc1)C(O)c1ccccc1 (configuration not stated)	3	-7	i	4	2	4	-11	.
COc1ccc(CNC(=O)C(C)n2nc(C)c3c(C)n(-c4ccc(C)cc4)nc3c2=O)cc1 (configuration not stated)	-10	-13	i	7	-1	-19	-6	-8
O=C(N/N=C/c1ccccn1)c1cc(-c2ccc(Br)s2)[nH]n1	34	20	i	-1	8	6	-6	-16
CCOc1ccc(NC(=O)CSc2nc3cc(C(=O)NCC4CCCO4)ccc3c(=O)n2CC2CCCO2)cc1 (configuration not stated)	.	.	.	-8	2	5	.	-29
Cc1ccccc1N1CCN(C(=S)c2ccc(-c3cccc([N+](=O)[O-])c3)o2)CC1	10	7	i	8	-1	-4	-23	.
CCOC(=O)Nc1ccc2c(c1)N(CCCN(C)C)c1ccccc1CC2	-18	4	i	2	-9	-8	-6	3
CCOCCCNC(=O)CCNS(=O)(=O)c1ccc(C)cc1	.	0	i	-40	0	0	-6	-4
CC[n+]1ccccc1/C=C1\Sc2ccc(C)cc2N1C	2	-5	i	29	-69	-31	?	-11	eIF4H inh retest=-9
COc1ccc2c(=O)c3c(=O)n(Cc4ccco4)c(-c4ccc(C)cc4)nc3oc2c1	-15	1	i	-111	-2	-3	5	2
CCNc1ccc(C(=O)N/N=C/c2c(C)nn(-c3ccccc3)c2N2CCCC2)cc1[N+](=O)[O-]	37	0	i	22	3	-10	-9	.
CN(Cc1ccccc1)Cc1nc2c(c(=O)n(C)c(=O)n2C)n1CCc1ccccc1	7	.	i	.	8	-1	.	6
Cc1nn(C)c(Cl)c1CN1CCN(C2CCCC2)C(CCO)C1 (configuration not stated)	14	12	i	3	0	7	7	-2
COc1ccc(NC(=O)CC2C(=O)N(C)C(=S)N2Cc2cccs2)cc1 (configuration not stated)	-9	-7	i	14	-8	-2	-9	-10
O=C(O)CC(NC(=O)CCc1ccccc1)c1ccc(Cl)cc1 (configuration not stated)	5	8	i	13	7	4	13	-28

The final 2 entries of the section above are carried over, then new ones follow.
SMILES	CSC inhib	eIF4H inh	Rce1 inhib	HIV Env fusion	MT1-MMP act inh	MT1-MMP act inh RFP	PABP polyA inh	Yeast UUG start	others
COc1ccc(NC(=O)CC2C(=O)N(C)C(=S)N2Cc2cccs2)cc1 (configuration not stated)	-9	-7	i	14	-8	-2	-9	-10
O=C(O)CC(NC(=O)CCc1ccccc1)c1ccc(Cl)cc1 (configuration not stated)	5	8	i	13	7	4	13	-28
Cc1cc(C)nc(N(C#N)C(C)C(=O)N(C)C)n1 (configuration not stated)	-20	2	i	1	0	2	2	5
CCCn1c(SCC(=O)N2CCc3ccccc32)nnc1-c1ccco1	-10	-4	i	-7	4	-1	1	-12
COc1ccc(-c2csc(C(O)c3ccc(F)cc3)n2)cc1 (configuration not stated)	.	.	.	-15	4	-5	.	-4
Cc1ccc(C)c(SCC(=O)Nc2oc(C)c3c(C)n[nH]c(=O)c23)c1	-8	.	i	-10	5	0	.	-12
CS(=O)(=O)N(CC(=O)NCc1ccncc1)c1cc(Cl)cc(Cl)c1	0	0	i	-12	-2	1	2	-9
CCOC(=O)c1ccccc1NC(=O)CC1SC(=NC)N(C)C1=O (configuration not stated)	4	-11	i	.	-1	2	0	-2
